VACV mCherry inh: vaccinia inhibition (mCherry reporter) | Vaccinia virus mCherry reporter infection, fluorescence; about a quarter of the inactives have no number | 0.63% of 310,000 active | AID 720579 | Potency, µM (titrated, usually from 36.5 µM), inactives show at the top dose activity change, negative = inhibition, most hits filed as inhibitors; active = well fitted inhibition curve with a large enough effect; inconclusive = small, poorly fitted or top-dose-only effect; inactive = no such curve, though single readings can be large or run the other way; tested in A549 cells; note: nearly all actives have a fitted effect of over 35% in size; inactives centre near -10
VACV Venus inh: vaccinia inhibition (Venus reporter) | Vaccinia virus Venus reporter expression, fluorescence | Potency, µM (titrated, usually from 36.5 µM), for inactives: top-dose activity change, negative = inhibition, actives largely listed as inhibitors | 0.46% of 330,000 active | AID 720580; active means well fitted inhibition curve with a large enough effect; inconclusive means small, poorly fitted or top-dose-only effect; inactive means no such curve, though single readings can be large or run the other way; tested in A549 cells; note: nearly all actives have a fitted effect of over 30% in size; inactives centre near -10
Starred values were filed as active, the others as inactive; i = inactive; u = inconclusive; x = not tested or not shown; & = joins results of further samples; [ ] = dose if it differs, or a comment. % is set by controls: 0 for no effect and ±100 for the full control effect; potency is the fitted concentration of half-maximal effect.

compound	VACV mCherry inh	VACV Venus inh
Brc1ccc(-c2nnc3sc(CN4CCc5ccccc5C4)cn23)cc1	4.5%	-0.7%
Cc1cc(C)c2c(n1)SCC(=O)N2CC(=O)Nc1cccc(Cl)c1	-18.4%	-28.7%
O=C(Cn1cc(S(=O)(=O)Cc2ccc(F)cc2)c2ccccc21)NCc1ccccc1Cl	i	-2.1%
CN(c1ccc(C(=O)N/N=C/c2cccc([N+](=O)[O-])c2)cc1)S(=O)(=O)c1ccccc1	-19.7%	-14.4%
CCOC(=O)C(C)N1N=C(/C=C/c2ccc(OC)cc2)CCC1=O (stereo not drawn)	x	2.6%
CCn1cc(S(=O)(=O)c2ccc(C)cc2)c(=O)c2cc(F)c(N3CCCCCC3)cc21	u	u
CCOC(=O)C1=C(C)N=c2s/c(=C\c3ccncc3)c(=O)n2C1c1ccc2c(c1)OCO2 (stereo not drawn)	x	-18.3%
CCOc1ccc2nc(N3CCCC3C(=O)N3CCC(c4nc5ccccc5o4)CC3)nc(C)c2c1 (stereo not drawn)	-14.3%	-10.0%
COc1ccc(S(N)(=O)=O)cc1C(=O)OCCCOC(=O)c1cc(S(N)(=O)=O)ccc1OC	i	-16.4%
CSc1ncnc2c1ncn2CCCNCCCc1ccccc1	i	-6.7%
Nc1ncc(-c2ccc(F)cc2)nc1N1CCN(CCO)CC1	-7.3%	-8.4%
CC1=CC=CC2=NC(=O)CC(C)(C(=O)N(CC(=O)NC3CCCC3)c3ccc(F)cc3)N12 (stereo not drawn)	6.9%	6.5%
Clc1ccc2[nH]c3c(c2c1)CCc1cn[nH]c1-3	u	u
CC(=O)c1c(C)[nH]c(C(=O)NCC2CCCCC2)c1C	-1.0%	-9.0%
COc1ccc(CNCCSc2nnnn2-c2ccccc2)c(OC)c1	-12.2%	-12.8%
N#C/C(=C\c1ccc(-c2ccc(C(=O)O)cc2)o1)c1nc2ccccc2[nH]1	-6.4%&-10.1%	13.3%&13.8%
COc1ccc(-c2nc(Cn3c(SCc4ccccc4F)nc4cccnc43)c(C)o2)cc1	-12.0%	-9.5%
Nc1nc(-c2ccccc2)c(CCCOc2ccc(NC(=O)CBr)cc2)c(=O)[nH]1	-15.6%	5.6%
c1cncc(-c2nnc3n2C2(CCCCC2)Cc2ccccc2-3)c1	i	-11.3%
CN(CC(=O)Nc1ccc(Cl)c(C(F)(F)F)c1)C(=O)C1(c2ccccc2)CC1	-13.0%	-26.0%
C#CCOc1ccc(-c2nnc(Nc3ccc(NC(C)=O)cc3)c3ccccc23)cc1	-12.2%	3.2%
COc1ccc(C(C)=O)cc1COC(=O)C1CC(=O)N(Cc2ccccc2)C1 (stereo not drawn)	-2.7%	-18.1%
Cc1cc(=O)oc2cc(OCC(=O)N3CCC(C(=O)O)(c4ccccc4)CC3)ccc12	-6.0%	-0.4%
COc1ccc(OCCOCCN2CCOCC2)cc1	-0.7%	-3.5%
Nc1nonc1C(=O)NCCN=Cc1ccccc1O	x	-7.7%
Cc1cccc(N2CCN(C(=S)c3ccc([N+](=O)[O-])cc3)CC2)c1	i	-5.6%
Cc1cc(C)cc(C(=O)NCC(=O)OCC(=O)N(C)c2ccccc2)c1	-0.2%	1.2%
O=C(CN1CCOc2ccccc21)NCc1ccc(Cl)cc1	-11.7%	4.6%
COCCNC(=S)NNC(=O)c1cc(C2CC2)nc2ccccc12	i	-4.5%
O=c1c2cc(Br)ccc2[nH]c(=S)n1-c1ccccc1	i	-4.2%

More results follow:
compound	VACV mCherry inh	VACV Venus inh
C#CCNC(=O)C1=C[C@@H](c2ccccc2)[C@H](CCCO)[C@@H](OCC)O1	-1.1%	-11.1%
CCN(CC)S(=O)(=O)c1cc(NC(=O)COC(=O)CCc2nc3ccccc3s2)ccc1C	-16.8%	-4.9%
CN(Cc1ccccc1)C(=O)COC(=O)c1c[nH]c2ccccc12	-1.5%	-22.4%
COc1cccc(/C=C/C(=O)OCC(=O)NCCc2ccccc2)c1	5.7%	-3.2%
C/C(=N\NC(=O)Cc1ccc(F)cc1)c1ccc(O)cc1	-16.9%	-15.6%
CCN1C(=O)CC(N2CCC(C(=O)OC)CC2)C1=O (stereo not drawn)	x	18.7%
O=c1c(Cc2ccccc2)c(O)ccn1Cc1ccco1	-1.1%	-14.3%
COc1ccccc1N1CCN(S(=O)(=O)CCNC(=O)COc2ccc(F)cc2)CC1	-19.6%	-17.8%
O=C(CCc1nc2ccccc2s1)Nc1cccnc1	i	-6.0%
CCC(Sc1nncn2c1cc1occc12)C(=O)Nc1ccc(C)c(Cl)c1 (stereo not drawn)	-2.5%	-4.7%
CCCCN(C(=O)c1cccc(S(=O)(=O)N2CCN(C)CC2)c1)c1c(N)n(CCC)c(=O)[nH]c1=O	-6.8%	-7.2%
O=C(NCC1Cc2cccc(-c3cnccn3)c2O1)c1ccc(F)c(Cl)c1 (stereo not drawn)	-9.7%	-3.9%
N#Cc1ccccc1NC(=O)C(=O)NCCc1csc(-c2ccc(C(F)(F)F)cc2)n1	-26.7%	u
CCOc1ccc(CNC(=O)CCS(=O)(=O)Cc2ccc(C)cc2)cc1OC	-28.2%	-13.7%
CC(=O)C1=C(O)C(=O)N(CC#N)C1c1cccs1 (stereo not drawn)	-11.8%	-5.4%
CCOC(=O)Cc1ccc(NC(=O)N(Cc2ccc(CC)cc2)Cc2cn[nH]c2-c2ccc(OC)cc2)cc1	-7.5%	-17.2%
Clc1ccc(OCCSc2nnnn2C2CCCCC2)cc1	x	-11.6%
COc1cccc(NC(=O)COC(=O)CCC2CCCC2)c1	-4.3%	4.7%
CSc1ncnc2[nH]ccc12	-28.3%	-15.4%
CN1c2ccc([N+](=O)[O-])cc2CC2(C(=O)NC(=O)N(c3ccccc3)C2=O)C1c1ccccc1 (stereo not drawn)	i	-8.7%
O=c1[nH]c2ccccc2cc1CN(c1ccccc1)S(=O)(=O)c1ccccc1	i	-19.8%
CC(=NCc1ccco1)C1=C(O)c2ccccc2C1=O	i	-20.7%
Cn1c(=O)c2c(ncn2CC(=O)N2CCCCCC2)n(C)c1=O	i	-3.1%
O=C(NNc1ccccc1)c1ccc(Cl)c(Cl)c1	-9.3%	-8.8%
Cc1ccc(S(=O)(=O)NCCC(=O)N2CCN(c3ccccc3)CC2)cc1C	-9.1%	-21.6%
S=c1[nH]c2ccccc2s1	-20.0%	-17.3%
O=C(Nc1ccc(Cl)cc1)c1cc(S(=O)(=O)N2CCc3ccccc32)ccc1F	-23.4%	-20.6%
CCN1CCN(c2ccc([N+](=O)[O-])c(Sc3nc4ccccc4[nH]3)c2)CC1	-28.5%	-22.5%
Cc1ccc(C2=CC(c3ccccc3F)n3c(nc4ccccc43)N2)cc1C (stereo not drawn)	-2.7%	11.0%
Cc1oc(-c2cccc(Br)c2)nc1CN1CCC(C(=O)NCCc2ccc(Cl)cc2)CC1	-8.2%	-17.4%

(listing goes on)
compound	VACV mCherry inh	VACV Venus inh
CCOC(=O)c1[nH]c2ccc(OC)cc2c1NC(=O)c1cccc(OC)c1	-23.8%	-6.8%
COC(=O)c1ccccc1-c1cc(C)cc2c1OC(CNC(=O)c1cnc(C)cn1)C2 (stereo not drawn)	2.8%	14.1%
COc1ccc(-c2cc(C(=O)OCC(=O)c3c(N)n(C)c(=O)n(C)c3=O)c3ccccc3n2)cc1	i	-3.6%
O=C(CN1CCN(C2CCCCC2)CC1)Nc1ccccc1-c1ccccc1	-8.9%	-29.1%
CC(Cc1ccsc1)NC(=O)CCc1nnc(COc2ccccc2)o1 (stereo not drawn)	u	u
COc1ccccc1N1CCN(C(=O)CNS(=O)(=O)c2ccc(Br)s2)CC1	-2.1%&-3.8%	-14.0%&-13.8%
CCCc1cc(=O)[nH]c(SCC(=O)NCCCC(=O)OCC)n1	5.5%	12.1%
COc1ccc(NC(=O)C2CCCN(S(=O)(=O)c3ccc4c(c3)oc(=O)n4C)C2)cc1OC (stereo not drawn)	i	-12.8%
CCOc1ccc(CCNC(=O)C(CCC(N)=O)NC(=O)OCc2ccccc2)cc1OCC (stereo not drawn)	i	3.2%
OC(COc1c(F)cc(Br)cc1F)CN1CCN(c2ccc(F)cc2)CC1 (stereo not drawn)	x	-20.2%
Cc1ccc(CCNc2ncnc3onc(C)c23)cc1	-24.9%	-13.5%
CC(C)(C)C(=O)NCCCc1nc2ccccc2n1CCCOc1ccc(Cl)cc1	x	u
COc1cc(Cl)c(C)cc1NC(=O)CSc1cc(Cl)ccc1Cl	-12.4%	-8.8%
COc1ccccc1CNC(=O)COC(=O)Cc1cccs1	-0.7%	-9.2%
O=C(Nc1ccc(F)cc1)N1CCN(c2ccc(F)cc2)CC1	i	-8.1%
CCN(CC)CC#Cc1ccc(C)cc1	-12.2%	-9.3%
CC1(C)C(=O)Nc2ccccc2N1C(=O)c1ccc([N+](=O)[O-])cc1	-17.4%	-11.6%
Cc1occc1C(=O)N/N=C/c1ccc(N(C)C)cc1	i[7.34 µM]	0.3%[7.34 µM]
O=C(Nc1ccc(F)cc1F)N1CCC(c2nc3ccccc3o2)CC1	-0.3%	-13.0%
COc1ccc(O)c(C(=O)c2cc(C#N)c(=O)n(-c3c(C)n(C)n(-c4ccccc4)c3=O)c2)c1	-15.2%	1.0%
COc1ccc(-c2nc(=S)n3ccsc3n2)cc1OC	i	-9.3%
O=C(O)c1ccc(-n2nnnc2SCc2cccc(Br)c2)cc1	i	-4.5%
COc1ccc(/C=N/NC(=O)CSc2nnc(CCCc3ccc(OC)c(C)c3)o2)cc1	x	u
COC(=O)CCc1c(C)[nH]c(C(=O)OCc2ccccc2)c1C	-17.4%	-6.7%
Cc1cc(=O)oc2c3c(cc(OCC(=O)N[C@@H](Cc4ccccc4)C(=O)O)c12)OC(C)(C)CC3	-8.5%	-20.4%
CC1(C(=O)NS(=O)(=O)c2ccc(Cl)s2)CCN1C(=O)CCc1ccccc1 (stereo not drawn)	2.0%	-8.9%
COc1ccccc1CNCC(=O)Nc1cc(S(=O)(=O)N2CCCCCC2)ccc1Cl	3.1%	0.9%
Cc1ccc(C)c(N2CCN(c3ccc(N4C(=O)COCC4=O)cc3[N+](=O)[O-])CC2)c1	i	-13.7%
c1ccc(-c2nc(-c3ccco3)n3ccccc23)cc1	-15.5%	4.7%
CCN(C(=O)CN1C(=O)c2ccccc2S1(=O)=O)C1CCCCC1	i	-3.9%

Compounds shown so far that contain a cyano group:
compound	VACV mCherry inh	VACV Venus inh
N#C/C(=C\c1ccc(-c2ccc(C(=O)O)cc2)o1)c1nc2ccccc2[nH]1	-6.4%&-10.1%	13.3%&13.8%
N#Cc1ccccc1NC(=O)C(=O)NCCc1csc(-c2ccc(C(F)(F)F)cc2)n1	-26.7%	u
CC(=O)C1=C(O)C(=O)N(CC#N)C1c1cccs1 (stereo not drawn)	-11.8%	-5.4%
COc1ccc(O)c(C(=O)c2cc(C#N)c(=O)n(-c3c(C)n(C)n(-c4ccccc4)c3=O)c2)c1	-15.2%	1.0%

Additional results:
compound	VACV mCherry inh	VACV Venus inh
CCOc1ccccc1N1CC(c2nc3ccccc3n2CCOc2ccc(OC)cc2)CC1=O (stereo not drawn)	i	-10.7%
CC1(C(=O)NCCc2c[nH]c3ccccc23)CCN1Cc1csc2ccccc12 (stereo not drawn)	-4.9%	2.9%
CC(=O)c1cccc(NC(=O)COc2ccc3oc(=O)cc(C)c3c2)c1	-11.6%	-5.3%
COCCNC(=O)c1cccc(OC2CCN(Cc3cccc(SC)c3)CC2)c1	-24.0%	-14.3%
C/C(=C\C(=O)C(F)(F)F)Nc1ccc(C)cc1	-4.5%	-3.9%
CC(=O)c1cccc(NC(=O)c2ccoc2C)c1	-9.9%	-6.2%
Cc1[nH]nc2c1C(=O)CCC2	-10.7%	5.0%
Cc1sc2ncn(CC(=O)NCC(=O)N3CCN(c4ccccc4F)CC3)c(=O)c2c1C	-1.5%	-15.4%
COC(=O)C1=C(C(=O)OC)C2(OC1c1ccccc1C)C(=O)c1ccccc1C2=O (stereo not drawn)	x	-5.9%
CC(C)CN(C(=O)COC(=O)Cc1ccc(Cl)cc1)c1c(N)n(Cc2ccccc2)c(=O)[nH]c1=O	-2.7%	-24.1%
COc1ccc(-n2ncc(C(=O)NCCc3ccsc3)c2C2CCN(C(=O)OC(C)(C)C)CC2)cc1	-11.5%	-1.1%
COc1cccc(C(=O)Nc2cccc(-c3ccc(N4CCOCC4)nn3)c2)c1	i	-6.0%
COc1ccc(N=Nc2c(N)nn(C)c2N)cc1	u	-20.3%
COc1ccccc1CNC(=O)c1cn(C)c2ccc(S(=O)(=O)N3CCCC3)cc2c1=O	-3.5%	0.4%
COc1ccc(Nc2nc(C)nc3sc4c(c23)CCC4)cc1O	-29.9%	u
OCC[N+]1(CCc2ccccc2)CCOCC1	i	-5.5%
Cc1cc(OCC(=O)Nc2ncn[nH]2)ccc1Cl	-12.6%	-17.8%&1.0%
CC1CCc2c(sc3nnn(CCCCOc4ccc(Cl)cc4)c(=O)c23)C1 (stereo not drawn)	-4.5%	-5.8%
Nc1nc(-c2ccccc2Br)cs1	-8.3%	-16.5%
O=c1c2ccccc2ncn1CCCCOc1ccc(Br)cc1	i	-9.0%

From PubChem
